From PubChem BioAssay
CtBP-E1A inh = inhibitors of CtBP/E1A interaction; activity change, % (no concentration beside the values); AID 651724; 340,000 tested, 0.49% active; AlphaScreen GST-E1A/His-CtBP binding, 1536-well; active compounds read low; control for the full effect not named in the record; in the data active means activity change below about -65%; inconclusive means about -30% to -65%; inactive means above about -30%; further: on the % scale 0 is the no-effect control and ±100 the full control effect
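Homogeneous bead-based format: GST-tagged E1A captured on glutathione donor beads, His-tagged CtBP on nickel acceptor beads; compounds precede bead addition by 2 h at 37 °C.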
Menin-MLL FL inh = displaces fluorescein MLL peptide from human menin. Fluorescence polarization, fluorescein-MLL peptide displacement from menin. FP activity change, % at 61.4 µM. 290,000 tested, under 10 active; inconclusive = falling polarisation curve, or a change in total fluorescence; inactive = total fluorescence flat and polarisation flat or rising; no compound was filed as active; the % refers to the polarisation; negative = inhibition;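 further: % of control where 0% means no effect; inhibitors lower the polarisation; unlabelled MLL peptide was the positive control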
TRPV1 PAM = human TRPV1 potentiation; Q8NER1; TRPV1-expressing cells, Fluo-8 calcium influx, capsaicin EC20 potentiation; host cell line not named in the record; control for the full effect not named in the record; potentiation, % at 8.33 µM; 320,000 tested, 0.02% active; AID 540277; active means potentiation above 80%; inconclusive means 30% to 80%; inactive means below 30%; further: 0% is about no effect
Target sequence (Q8NER1 whole entry, looked up): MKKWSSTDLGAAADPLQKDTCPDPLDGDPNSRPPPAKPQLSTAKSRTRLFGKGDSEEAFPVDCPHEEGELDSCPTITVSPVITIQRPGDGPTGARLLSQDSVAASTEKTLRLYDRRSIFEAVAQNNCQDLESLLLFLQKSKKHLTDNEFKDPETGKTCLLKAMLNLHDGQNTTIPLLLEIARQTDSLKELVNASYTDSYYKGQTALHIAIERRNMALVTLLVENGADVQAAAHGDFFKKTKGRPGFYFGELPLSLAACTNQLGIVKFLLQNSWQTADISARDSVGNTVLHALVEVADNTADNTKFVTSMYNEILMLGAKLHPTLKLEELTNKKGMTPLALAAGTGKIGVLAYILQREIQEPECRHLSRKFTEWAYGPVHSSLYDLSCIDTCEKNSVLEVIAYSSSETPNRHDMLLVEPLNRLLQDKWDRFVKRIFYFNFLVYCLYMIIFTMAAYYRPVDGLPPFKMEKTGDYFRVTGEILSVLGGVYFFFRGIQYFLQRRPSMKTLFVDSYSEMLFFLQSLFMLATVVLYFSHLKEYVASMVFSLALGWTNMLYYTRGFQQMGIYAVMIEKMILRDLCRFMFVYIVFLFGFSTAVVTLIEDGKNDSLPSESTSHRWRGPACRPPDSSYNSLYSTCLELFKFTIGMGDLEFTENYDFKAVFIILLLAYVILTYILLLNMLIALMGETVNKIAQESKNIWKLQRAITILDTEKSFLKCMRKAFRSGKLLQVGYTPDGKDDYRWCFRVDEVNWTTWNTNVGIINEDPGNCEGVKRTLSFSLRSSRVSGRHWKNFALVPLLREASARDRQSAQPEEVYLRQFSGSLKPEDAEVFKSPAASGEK
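Fluo-8 calcium influx in TRPV1-expressing cells, kinetic read (ex 480/em 520 nm). Compound added and read 3 min for agonist activity, followed by capsaicin at EC20 final and 2 min further read for enhancement.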
gsp ag = agonists of gsp mutant (McCune-Albright syndrome); gsp mutant cells, cAMP HTRF, 30 min; control for the full effect not named in the record; Potency, µM (doses to about 76.9 µM), without a hit: top-dose activation (cAMP increase), usual class: activators; 340,000 tested, 0.13% active; active = well fitted activation curve with a large enough effect; inconclusive = small, poorly fitted or top-dose-only effect, or another doubt; inactive = no such curve, though single readings can be large or run the other way; cell line not stated here;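 further: phosphodiesterase inhibitor Ro 20-1724 added with compounds to block cAMP breakdown; potency means the concentration at half of the fitted maximal effect; nearly all actives have a fitted effect of over 60% in size; about a fifth of the inactives were tested at one dose only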
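Cells stably selected in G418 were plated at 2000/well, grown 16-24 hr, then given compounds in DMSO with the PDE inhibitor […] (300 uM solution added) for 30 min at 37C; cAMP was read by HTRF.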
gsp antag = antagonizes gsp, the McCune-Albright syndrome mutation; gsp-mutant cells, cAMP HTRF, 30 min; control for the full effect not named in the record; Potency, µM (series often up to 76.9 µM), for the others: top-dose activity change, negative = inhibition, usual class: inhibitors; 340,000 tested, 0.4% active; AID 624288; active = falling curve of any shape with a large fitted effect; inconclusive = falling curve, mostly with a smaller effect; inactive = flat or rising curve; cell line not stated here;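 further: intracellular cAMP measured with PDE inhibitor Ro 20-1724 present during compound exposure; potency means the concentration at half of the fitted maximal effect; on the % scale 0 is the no-effect control and ±100 the full control effect; nearly all actives have a fitted effect of over 65% in size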
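HTRF cAMP measurement after 30 min RT detection following 30 min, 37C compound treatment alongside […] (added as 300 uM solution) in G418-selected cells seeded at 2000/well and grown 16–24 h.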
Sfp PPTase inh = Sfp phosphopantetheinyl transferase inhibition. Biochemical Sfp PPTase activity, qHTS. AID 1490. Potency, µM, for the others: max response, negative = inhibition, actives largely listed as inhibitors. 310,000 tested, 3.5% active; active means well fitted inhibition curve with a large enough effect; inconclusive means small, poorly fitted or top-dose-only effect, or another doubt; inactive means no such curve, though single readings can be large or run the other way;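 further: the enzyme is Sfp with the accession as filed and its product quenches rhodamine fluorescence; potency means the concentration at half of the fitted maximal effect; 0% = enzyme reaction without inhibitor and -100% = no enzyme wells; top concentration of the series not given in the record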
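Step 1, compound plus 15 nM Sfp-PPTase, 15 min, room temperature. Step 2, add rhodamine-CoA (5 uM) and BHQ-2-YbbR (12.5 uM). Step 3, read 525/598 nm fluorescence at 0 and 30 min.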
ClpP mod = qHTS Assay for Activators of ClpP | 340,000 tested, 1.9% active | purified B. subtilis ClpP, FRET peptide cleavage, 20 min | Potency, µM (highest dose often 57.5 µM), without a hit: at the top dose activity change, negative = active; active = well fitted falling curve with a large enough effect; inconclusive = small, poorly fitted or top-dose-only effect; inactive = no such curve, though single readings can be large or run the other way; further: potency means the concentration at half of the fitted maximal effect; the source files actives as falling curves though it sought activators and does not explain the sign; nearly all actives have a fitted effect of over 65% in size; many hits overshoot -100%
Target sequence (P80244 whole entry, looked up): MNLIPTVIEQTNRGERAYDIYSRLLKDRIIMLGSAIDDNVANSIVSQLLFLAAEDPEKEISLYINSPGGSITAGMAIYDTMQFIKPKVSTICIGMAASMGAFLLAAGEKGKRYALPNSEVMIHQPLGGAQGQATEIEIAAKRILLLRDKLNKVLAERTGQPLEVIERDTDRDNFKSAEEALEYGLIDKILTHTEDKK
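Buffer: 100 mM Tris/HCl pH8, 100 mM KCl, 0.05% low protease BSA, 2.5% glycerol, 0.01% Tween-20. ClpP 10 microg/mL final; 20 min RT; delta FRET normalized to ADEP and DMSO controls.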
Numbers without * were called inactive; [ ] = another dose, or the depositor's remark.

`CCOc1ccc(N(CC(=O)Nc2cccc(F)c2)S(=O)(=O)c2c(C)noc2C)cc1` gave CtBP-E1A inh -0.8, Menin-MLL FL inh 1.7, gsp ag -2.4%, gsp antag -1.5%, Sfp PPTase inh 34.7% and ClpP mod -2.9%.
For CC(C)NC(=O)CSc1nc(-c2cccs2)cc(-c2ccccc2)c1C#N the results were CtBP-E1A inh 9.5, Menin-MLL FL inh 1.4, TRPV1 PAM -0.2, gsp ag 26.6%, gsp antag inconclusive, Sfp PPTase inh -8.0% and ClpP mod 111.6%.
For Cc1cc(CNCc2c(C(=O)N(C)Cc3ccccc3)nc3ccccn23)nn1C the results were CtBP-E1A inh -11.1, Menin-MLL FL inh 0.5, TRPV1 PAM -1.6, gsp ag -32.0%[inhibitor], gsp antag -2.8%, Sfp PPTase inh -6.2% and ClpP mod -13.0%.
`CCN(C(=O)c1cnc(NC(C)C)cc1C(F)(F)F)c1ccc(Cl)cc1` gave CtBP-E1A inh 2.8, Menin-MLL FL inh -1.3, TRPV1 PAM -2.5, gsp ag 9.3%[15.4 µM], gsp antag -9.1%, Sfp PPTase inh 3.5% and ClpP mod -4.0%.
`COCCCN1C(=O)C(=O)/C(=C(/O)c2ccc(S(=O)(=O)N3CCOCC3)cc2)C1c1cccc(Cl)c1` (stereo not given) gave CtBP-E1A inh 1.9, TRPV1 PAM -2.5, gsp ag inconclusive, gsp antag 4.6% and Sfp PPTase inh 5.7%.
CC(C)C(C)NC(=O)COC(=O)c1cccc(C(=O)OCC(=O)NC(C)C(C)C)n1 (stereo not given) was read as Menin-MLL FL inh -1.9, TRPV1 PAM 5.0, gsp ag -138.9%[inhibitor], gsp antag -4.5%, Sfp PPTase inh 1.5% and ClpP mod -0.5%.
O=C(CC1N=C2c3ccccc3N=C(SCc3ccc(Cl)cc3)N2C1=O)NCc1ccco1 (stereo not given) was read as CtBP-E1A inh -18.3, Menin-MLL FL inh -0.2, TRPV1 PAM 13.7, gsp ag 28.6%, gsp antag inconclusive, Sfp PPTase inh inconclusive and ClpP mod -5.2%.
COc1ccc2c(CC(=O)OCC(=O)Nc3cccc(S(N)(=O)=O)c3)coc2c1 was read as CtBP-E1A inh 0.5, Menin-MLL FL inh 8.3, TRPV1 PAM -8.3, gsp ag -41.3%[inhibitor], gsp antag -2.7%, Sfp PPTase inh 14.5% and ClpP mod -0.9%.
For CN1CCN(S(=O)(=O)c2ccc(-c3noc(C4CCN(S(C)(=O)=O)CC4)n3)cc2)CC1 the results were CtBP-E1A inh 6.7, Menin-MLL FL inh -0.4, TRPV1 PAM 9.6, gsp ag -3.4%, gsp antag 9.3%, Sfp PPTase inh 18.1% and ClpP mod -0.8%.
For COc1ccc(S(=O)(=O)N(C)CC(=O)NCCC2=CCCCC2)cc1OC the results were CtBP-E1A inh -2.6, Menin-MLL FL inh 0.8, TRPV1 PAM -9.7, gsp ag -0.1%, gsp antag -8.0%, Sfp PPTase inh 13.7% and ClpP mod -2.7%.
`Cc1ccsc1C(=O)N1CCCC(CO)(Cc2ccccc2)C1` (stereo not given) gave CtBP-E1A inh 10.2, Menin-MLL FL inh -1.9, TRPV1 PAM -13.4, gsp ag 15.2%, gsp antag -9.9%, Sfp PPTase inh 1.6% and ClpP mod 3.4%.
Screening Cc1cc(N2CCN(C)CC2)nc2ccc(NC(=O)CCC(=O)NCCCOC(C)C)cc12 returned CtBP-E1A inh -2.1, Menin-MLL FL inh 5.5, TRPV1 PAM 5.0, gsp ag 0.4%, gsp antag 10.3% and Sfp PPTase inh -0.4%.
O=C1Nc2ccccc2O/C1=C\c1ccccc1 was read as CtBP-E1A inh 9.0, Menin-MLL FL inh -3.8, TRPV1 PAM -0.2, gsp ag 0.4%, gsp antag 2.6% and Sfp PPTase inh 14.6%.
C=C(C)CSc1nnc(-c2cccc(S(=O)(=O)N(C)C)c2)n1-c1cc(OC)ccc1OC was read as CtBP-E1A inh -1.4, Menin-MLL FL inh 2.5, TRPV1 PAM -17.0, gsp ag -0.9%, gsp antag -17.0%, Sfp PPTase inh 6.7% and ClpP mod 0.5%.
For COc1ccc(NC(=O)C2C3C=CC4(O3)C2C(=O)N(CCCN2CCCC(C)C2)C4C(=O)NC2CCCCC2)cc1 (stereo not given) the results were CtBP-E1A inh -12.8, Menin-MLL FL inh 1.2, TRPV1 PAM 7.8, gsp ag -0.2%[15.4 µM], gsp antag 13.3% and Sfp PPTase inh 4.1%.
For COc1ccccc1C(=O)NCCC(=O)Nc1ccc(C)cn1 the results were CtBP-E1A inh 0.0, TRPV1 PAM 12.5, gsp ag 29.8%, gsp antag -5.7%, Sfp PPTase inh 9.4% and ClpP mod 0.6%.
Screening Cc1nc(CC(=O)NNS(=O)(=O)c2cccc(Cl)c2Cl)cs1 returned CtBP-E1A inh -3.5, gsp ag -25.3%, gsp antag -11.8% and ClpP mod -2.6%.
Screening COc1cc(NC(=O)Cn2ncc3c2-c2ccccc2OC3)cc(OC)c1OC returned CtBP-E1A inh 3.1, Menin-MLL FL inh -0.5, gsp ag -5.3%, gsp antag -2.5%, Sfp PPTase inh -1.9% and ClpP mod 0.7%.
Cc1ccc(NS(=O)(=O)c2ccc(Cl)s2)nc1 was read as CtBP-E1A inh 2.9, TRPV1 PAM inconclusive, gsp ag 29.2%, gsp antag -12.9%, Sfp PPTase inh 2.1% and ClpP mod -9.3%.
Screening Cc1ccc(S(=O)(=O)N(C)C)cc1NC(=O)COC(=O)Cc1cccs1 returned CtBP-E1A inh -2.7, TRPV1 PAM 4.6, gsp ag 13.4%[15.4 µM], gsp antag 0.8% and ClpP mod -7.3%.
CCOC(=O)C1=C(COC(=O)C(CC)Oc2ccccc2)NC(=O)NC1C (stereo not given) was read as CtBP-E1A inh 10.8, TRPV1 PAM 2.5, gsp ag -11.0%, gsp antag -1.1% and ClpP mod 0.3%.
`Cc1ccn2c(=O)nc(SCC(=O)Nc3ccc4c(c3)OCCO4)nc2c1` gave CtBP-E1A inh 2.9, TRPV1 PAM 14.0, gsp ag 9.1%, gsp antag 9.8% and ClpP mod -13.1%.
`Cc1nn2c(-c3ccccc3)ccnc2c1-c1ccccc1` gave CtBP-E1A inh 7.2, Menin-MLL FL inh 5.9, TRPV1 PAM -2.3, gsp ag -46.5%[inhibitor], gsp antag inconclusive, Sfp PPTase inh -12.1% and ClpP mod -2.4%.
`O=C(CN(Cc1ccccc1)S(=O)(=O)c1ccc(Br)cc1)NCc1ccco1` gave CtBP-E1A inh -6.5, Menin-MLL FL inh 2.1, TRPV1 PAM -15.1, gsp ag -27.7%, gsp antag -19.8%, Sfp PPTase inh 6.9% and ClpP mod 0.9%.
CCN(CC)S(=O)(=O)c1cccc(C(=O)NC(C(=O)Nc2nnc(C3CC3)s2)C(C)C)c1 (stereo not given) was read as CtBP-E1A inh -2.5, Menin-MLL FL inh 2.0, TRPV1 PAM -1.4, gsp ag 27.6%, gsp antag -5.0%, Sfp PPTase inh -1.7% and ClpP mod -3.8%.
`O=C(COC(=O)c1cc([N+](=O)[O-])ccc1NCCO)c1ccc(Cl)cc1` gave CtBP-E1A inh 0.0, Menin-MLL FL inh 8.6, TRPV1 PAM 4.0, gsp ag -1.8%[15.4 µM], gsp antag -2.9% and Sfp PPTase inh -1.1%.
`O=C(Cn1cnc2c(nnn2-c2ccc(F)cc2)c1=O)N1CCCC1` gave CtBP-E1A inh 0.2, Menin-MLL FL inh 2.3, TRPV1 PAM -3.0, gsp ag 0.0%, gsp antag -0.6%, Sfp PPTase inh 5.7% and ClpP mod -1.5%.
`COc1ccc(NC(=O)C2=CCN(S(=O)(=O)c3ccccc3)CC2)cc1OC` gave Menin-MLL FL inh -0.3, TRPV1 PAM 15.5, gsp ag 5.6%, gsp antag -8.5%, Sfp PPTase inh 2.1% and ClpP mod -0.8%.
COc1ccc(C2CC(c3ccccc3)n3nc(NC(=O)c4cccs4)nc3N2)cc1 (stereo not given) was read as CtBP-E1A inh -1.7, Menin-MLL FL inh 10.0, TRPV1 PAM -0.3, gsp ag inconclusive, gsp antag -4.0%, Sfp PPTase inh -5.3% and ClpP mod -19.4%.
CC(Sc1nnc(N)s1)C(=O)NCc1ccc2c(c1)OCO2 (stereo not given) was read as TRPV1 PAM 3.5, gsp ag -17.3%, gsp antag 4.4% and ClpP mod -1.8%.
Cc1ccc(NC(=O)C2CCN(S(=O)(=O)c3ccc4c(c3)NC(=O)C(C)S4)CC2)c(Cl)c1 (stereo not given) was read as TRPV1 PAM -3.0, gsp ag -0.1%, gsp antag -26.2%, Sfp PPTase inh 4.0% and ClpP mod 2.4%.
`Cc1ccc(C)c(S(=O)(=O)N2CCN(C(=O)CSC(=S)N3CCCC3)CC2)c1` gave CtBP-E1A inh 7.0, TRPV1 PAM -9.7, gsp ag 4.6%[15.4 µM] and gsp antag 2.3%.
CCn1cc(CN2CCN(Cc3cccc(OC)c3)C(CCO)C2)c(C)n1 (stereo not given) was read as Menin-MLL FL inh 8.7, TRPV1 PAM 8.5, gsp ag -1.2%, gsp antag -9.4%, Sfp PPTase inh 12.7% and ClpP mod 0.4%.
Screening CCOc1ccc(S(=O)(=O)N2CCOCC2)c2ccccc12 returned CtBP-E1A inh 5.1, Menin-MLL FL inh -1.3, TRPV1 PAM -10.3, gsp ag 4.4%, gsp antag -2.1%, Sfp PPTase inh 1.6% and ClpP mod -7.7%.
For O=[N+]([O-])c1ccc(/C=N/n2c(C3CCCCC3)n[nH]c2=S)cc1 the results were CtBP-E1A inh -22.8, Menin-MLL FL inh 3.2, TRPV1 PAM -12.8, gsp ag -15.8%, gsp antag -12.0%, Sfp PPTase inh -7.8% and ClpP mod -3.3%.
`CC(NC(=O)c1ccc(CS(=O)(=O)c2cccc(C(F)(F)F)c2)o1)c1ccc2c(c1)OCCO2` (stereo not given) gave CtBP-E1A inh 0.7, Menin-MLL FL inh 3.0, TRPV1 PAM -7.2, gsp ag -5.6%, gsp antag -16.2%, Sfp PPTase inh 13.7% and ClpP mod -0.8%.
CCCOC(=O)c1ccc(NC(=O)CSC2=Nc3ccccc3C3CC=NN23)cc1 (stereo not given) was read as CtBP-E1A inh 7.3, Menin-MLL FL inh 13.4, TRPV1 PAM 0.5, gsp ag inconclusive, gsp antag 13.4%, Sfp PPTase inh inconclusive and ClpP mod -1.3%.

Not a hit list (roughly 5.3% active in at least one column).
